Env fusion inh – inhibitors of HIV Env-mediated cell fusion. HeLa-JRFL Env/CEM21 cell fusion, luciferase. inhibition, % at 12.3 µM. actives 1.1% (n = 360,000);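 active = mean replicate inhibition score of at least 50 and every replicate individually at or above 50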;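 note: 0% = plate neutral controls and 100% = maraviroc near 300 nM; one replicate is shown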
UUG fidelity – alters start codon recognition fidelity in yeast | S. cerevisiae UUG-firefly luciferase reporter, luminescence/redox ratio | activity score, % at 18.7 µM | actives 0.13% (n = 350,000);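 active = replicate mean at a twofold rise or more, about +100% in these data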;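 note: firefly luciferase made from a UUG start codon reports start codon fidelity; reporter light over untreated wells divided by growth signal over untreated wells; some hits fall short of that in this replicate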
The depositor's hits bear a star; [ ] = another dose, or the depositor's remark. Not all compounds are listed; rates above refer to the full screens.

Results follow in this order: Env fusion inh	UUG fidelity
- C[C@@H]1CN([C@@H](C)CO)C(=O)Cc2cc(N(C)C)ccc2O[C@H]1CN(C)Cc1ccc(C(=O)O)cc1
    -2[16.7 µM]	-1
- COCc1cn(CC[C@@H]2CC[C@@H](NC(=O)Nc3ccccc3)[C@@H](CO)O2)nn1
    -12[16.7 µM]	-16
- COc1ccc(C#Cc2cnc3c(c2)C(=O)N([C@H](C)CO)C[C@H](C)[C@H](CN(C)C(=O)NC2CCCCC2)O3)cc1OC
    14[16.7 µM]	9
- CNC[C@H]1Oc2cc(C#CC(C)C)ccc2S(=O)(=O)N([C@@H](C)CO)C[C@@H]1C
    -9[16.7 µM]	2
- Cc1ccc(S(=O)(=O)Nc2ccc3c(c2)C(=O)N([C@H](C)CO)C[C@@H](C)[C@@H](CN(C)C(=O)CCCN(C)C)OCCCC[C@H](C)O3)cc1
    25[16.7 µM]	23
- C[C@@H]1CN([C@@H](C)CO)C(=O)Cc2cc(NC(=O)C3CC3)ccc2O[C@H]1CN(C)C(=O)Nc1cccc2ccccc12
    15[16.7 µM]	8
- C[C@@H](O)C#Cc1ccc2c(c1)O[C@H](CN(C)CC1CCOCC1)[C@@H](C)CN([C@@H](C)CO)S2(=O)=O
    -31[16.7 µM]	-3
- COc1ccc([Si](C)(C)[C@@H]2[C@@H](CC(=O)N3Cc4ccccc4C[C@H]3CO)O[C@]3(C(=O)N(Cc4ccc(I)cc4)c4ccccc43)[C@H]2C)cc1
    31[16.7 µM]	0
- C[C@H](CO)N1C[C@H](C)[C@H](CN(C)Cc2ccccc2)OCCCC[C@H](C)Oc2ccc(NC(=O)Nc3ccccc3)cc2C1=O
    75*[16.7 µM]	48
- CN(C)CC(=O)N1[C@H](C#N)[C@@H](c2ccc(/C=C/c3ccccc3)cc2)[C@H]1CO
    -40[16.7 µM]	4

By substructure: the compounds so far with an aryl methoxy group
Results follow in this order: Env fusion inh	UUG fidelity
- COc1ccc(C#Cc2cnc3c(c2)C(=O)N([C@H](C)CO)C[C@H](C)[C@H](CN(C)C(=O)NC2CCCCC2)O3)cc1OC
    14[16.7 µM]	9
- COc1ccc([Si](C)(C)[C@@H]2[C@@H](CC(=O)N3Cc4ccccc4C[C@H]3CO)O[C@]3(C(=O)N(Cc4ccc(I)cc4)c4ccccc43)[C@H]2C)cc1
    31[16.7 µM]	0

Next part:
Results follow in this order: Env fusion inh	UUG fidelity
- C[C@@H]1CCCCO[C@@H](CN(C)Cc2ccc(C(F)(F)F)cc2)[C@H](C)CN([C@H](C)CO)C(=O)c2cc(NC(=O)C3CCCCC3)ccc2O1
    71*[16.7 µM]	3
- CC(C)C(=O)Nc1ccc2c(c1)C(=O)N(C)[C@@H]1CC[C@@H](CC(=O)NCCCN(C)C)O[C@@H]1CO2
    -17[16.7 µM]	12
- COc1ccc(S(=O)(=O)Nc2ccc3c(c2)C(=O)N([C@H](C)CO)C[C@H](C)[C@H](CN(C)C(=O)NC(C)C)OCCCC[C@@H](C)O3)cc1
    17[16.7 µM]	3
- O=C(C[C@@H]1C[C@@H]2c3cc(NS(=O)(=O)c4ccc(F)cc4)ccc3O[C@@H]2[C@H](CO)O1)NCc1ccccc1F
    90*[16.7 µM]	-3
- C[C@@H]1CN([C@H](C)CO)C(=O)c2cc(C#CC(C)(C)O)cnc2O[C@H]1CN(C)C(=O)C1CCCCC1
    -7[16.7 µM]	0
- COc1ccc(S(=O)(=O)N[C@H]2CC[C@@H](CC(=O)O)O[C@@H]2CO)cc1
    10[16.7 µM]	-13
- Cc1ccc(S(=O)(=O)N(C)C[C@H]2Oc3ccc(NS(=O)(=O)c4cccs4)cc3CC(=O)N([C@@H](C)CO)C[C@H]2C)cc1
    3[16.7 µM]	6
- C[C@H]1CN([C@@H](C)CO)C(=O)c2cc(NC(=O)NC3CCCCC3)ccc2O[C@@H]1CN(C)S(=O)(=O)c1cccs1
    7[16.7 µM]	0
- CC(=O)N(C)C[C@H]1Oc2ncc(C#Cc3ccccc3F)cc2C(=O)N([C@@H](C)CO)C[C@H]1C
    12[16.7 µM]	2
- COc1ccc(NC(=O)Nc2cccc3c2O[C@@H](CN(C)S(C)(=O)=O)[C@H](C)CN([C@@H](C)CO)C3=O)cc1
    -20[16.7 µM]	4
- C[C@H](CO)N1C[C@H](C)[C@H](CN(C)C(=O)C2CCOCC2)Oc2ncc(C#CC(C)(C)O)cc2C1=O
    7[16.7 µM]	-4
- CC(C)NC(=O)Nc1ccc2c(c1)C(=O)N([C@@H](C)CO)C[C@@H](C)[C@@H](CN(C)C(=O)Nc1ccc3c(c1)OCO3)O2
    -18[16.7 µM]	-17
- C[C@H]1CN([C@@H](C)CO)C(=O)Cc2cc(NS(=O)(=O)c3cccs3)ccc2O[C@@H]1CN(C)Cc1ccc(Cl)c(Cl)c1
    2[16.7 µM]	-2
- C[C@@H]1CN([C@@H](C)CO)C(=O)c2cc(NS(=O)(=O)c3ccc(Cl)cc3)ccc2O[C@@H](C)CCCCO[C@H]1CN(C)CC1CCCCC1
    -134[16.7 µM]	21
- C[C@H](O)C#Cc1cnc2c(c1)C(=O)N([C@@H](C)CO)C[C@H](C)[C@@H](CN(C)C(=O)Nc1ccc(F)cc1)O2
    -8[16.7 µM]	5
- CNC[C@H]1OCCCC[C@H](C)Oc2ccc(NC(=O)CCCN(C)C)cc2C(=O)N([C@@H](C)CO)C[C@@H]1C
    10[16.7 µM]	-2
- CC(C)NC(=O)N(C)C[C@@H]1Oc2ccc(NC(=O)C3CCCCC3)cc2C(=O)N([C@H](C)CO)C[C@@H]1C
    14[16.7 µM]	2
- Cc1noc(C)c1NC(=O)N(C)C[C@H]1Oc2c(NC(=O)NC3CCCCC3)cccc2C(=O)N([C@@H](C)CO)C[C@H]1C
    -5[16.7 µM]	8
- C[C@@H]1CN([C@H](C)CO)C(=O)Cc2cc(NS(=O)(=O)c3ccc(Cl)cc3)ccc2O[C@H]1CN(C)C(=O)Nc1ccc(F)cc1
    10[16.7 µM]	3
- O=C(NCC[C@@H]1CC[C@@H](NC(=O)C2CCCC2)[C@@H](CO)O1)c1ccc(F)cc1
    9[16.7 µM]	-12

3 of the compounds above, field by field:
CNC[C@H]1Oc2cc(C#CC(C)C)ccc2S(=O)(=O)N([C@@H](C)CO)C[C@@H]1C
  Env fusion inh: -9[16.7 µM]	UUG fidelity: 2
Cc1ccc(S(=O)(=O)Nc2ccc3c(c2)C(=O)N([C@H](C)CO)C[C@@H](C)[C@@H](CN(C)C(=O)CCCN(C)C)OCCCC[C@H](C)O3)cc1
  Env fusion inh: 25[16.7 µM]	UUG fidelity: 23
C[C@@H]1CN([C@@H](C)CO)C(=O)Cc2cc(NC(=O)C3CC3)ccc2O[C@H]1CN(C)C(=O)Nc1cccc2ccccc12
  Env fusion inh: 15[16.7 µM]	UUG fidelity: 8

The list continues:
Results follow in this order: Env fusion inh	UUG fidelity
- C[C@@H]1CN([C@@H](C)CO)C(=O)c2cccc(NS(=O)(=O)c3ccc(Cl)cc3)c2O[C@@H]1CN(C)Cc1ccc(-c2ccccc2)cc1
    26[16.7 µM]	10
- CCC(=O)Nc1ccc2c(c1)OC[C@@H](C)N(C(=O)CN(C)C)C[C@@H](C)[C@@H](OC)CN(C)C2=O
    1[16.7 µM]	6
- C[C@@H]1CN([C@H](C)CO)C(=O)c2cc(-c3cccc(F)c3)cnc2O[C@H]1CN(C)CC1CCCC1
    0[16.7 µM]	-7
- C[C@H]1CN([C@@H](C)CO)S(=O)(=O)c2ccc(C#CC3CC3)cc2O[C@@H]1CN(C)Cc1ccc(F)cc1
    24[16.7 µM]	7
- O=C(N[C@H]1CC[C@@H](CCNS(=O)(=O)c2ccc(F)cc2)O[C@@H]1CO)C1CCC1
    -6[16.7 µM]	5
- Cc1noc(C)c1NC(=O)N(C)C[C@H]1Oc2ccc(NC(=O)CCN3CCOCC3)cc2CC(=O)N([C@@H](C)CO)C[C@@H]1C
    0[16.7 µM]	-17
- C/C=C/c1ccc2c(c1)O[C@H](CN(C)CCC)[C@H](C)CN([C@H](C)CO)S2(=O)=O
    -1[16.7 µM]	75*
- Cc1nn(C)cc1NC(=O)C[C@H]1CC[C@@H]2[C@@H](COc3ccc(NC(=O)NC(C)C)cc3C(=O)N2C)O1
    5[16.7 µM]	3
- C[C@@H]1CN([C@H](C)CO)C(=O)c2cccc(NC(=O)C3CC3)c2O[C@H]1CN(C)S(=O)(=O)c1cccs1
    -12[16.7 µM]	15
- C[C@H](CO)N1C[C@H](C)[C@H](CN(C)CC2CCCCC2)Oc2ccc(NC(=O)CCN3CCOCC3)cc2CC1=O
    4[16.7 µM]	-11
- C[C@H](CO)N1C[C@H](C)[C@H](CN(C)C(=O)c2cnccn2)Oc2cc(Br)ccc2S1(=O)=O
    32[16.7 µM]	-9
- COc1ccc(NC(=O)N(C)C[C@H]2OCCCC[C@@H](C)Oc3ccc(NS(=O)(=O)c4cn(C)cn4)cc3C(=O)N([C@H](C)CO)C[C@@H]2C)cc1
    -30[16.7 µM]	-17
- COc1ccc(CN(C)C[C@@H]2OCCCC[C@H](C)Oc3ccc(NS(=O)(=O)c4c(C)noc4C)cc3C(=O)N([C@@H](C)CO)C[C@@H]2C)cc1
    -7[16.7 µM]	1
- COc1ccc(NC(=O)Nc2ccc3c(c2)C(=O)N([C@@H](C)CO)C[C@@H](C)[C@H](CN(C)C(=O)Nc2ccc(F)cc2)OCCCC[C@@H](C)O3)cc1
    12[16.7 µM]	-3
- C[C@@H]1CN([C@H](C)CO)S(=O)(=O)c2ccc(Br)cc2O[C@H]1CN(C)C(=O)CN(C)C
    10[16.7 µM]	12
- Cc1noc(C)c1NC(=O)N(C)C[C@H]1OCCCC[C@@H](C)Oc2ccc(NC(=O)Nc3cccc4ccccc34)cc2C(=O)N([C@@H](C)CO)C[C@H]1C
    6[16.7 µM]	14
- COCC(=O)N(C)C[C@H]1Oc2ncc(-c3ccc(F)cc3)cc2C(=O)N([C@H](C)CO)C[C@H]1C
    -4[16.7 µM]	-5
- COc1ccc(S(=O)(=O)N(C)C[C@@H]2OCCCC[C@@H](C)Oc3ccc(NC(=O)Nc4cccc5ccccc45)cc3C(=O)N([C@@H](C)CO)C[C@H]2C)cc1
    -13[16.7 µM]	-14
- CC(=O)N(C)C[C@@H]1Oc2cc(-c3ccccc3C)ccc2S(=O)(=O)N([C@@H](C)CO)C[C@@H]1C
    38[16.7 µM]	2
- C/C=C/c1ccc2c(c1)O[C@H](CN(C)C(=O)NC(C)C)[C@H](C)CN([C@H](C)CO)S2(=O)=O
    18[16.7 µM]	-2
- CC(C)C#Cc1cnc2c(c1)C(=O)N([C@H](C)CO)C[C@H](C)[C@@H](CN(C)C(=O)C1CCC1)O2
    8[16.7 µM]	20
- C[C@@H]1CN([C@@H](C)CO)C(=O)c2cc(-c3cccc(C#N)c3)cnc2O[C@H]1CN(C)C(=O)C1CC1
    -7[16.7 µM]	-3
- C[C@H]1CN([C@@H](C)CO)C(=O)c2cccc(NC(=O)Nc3ccccc3)c2O[C@H]1CN(C)Cc1ccc(Cl)c(Cl)c1
    4[16.7 µM]	5
- O=C(C[C@H]1C[C@H]2c3cc(NC(=O)C4CCC4)ccc3O[C@H]2[C@@H](CO)O1)NCc1ccc2c(c1)OCO2
    78*[16.7 µM]	-18
- O=C(C[C@@H]1CC[C@H]2[C@@H](COC[C@@H](O)CN2Cc2ccccc2F)O1)NC1CCC1
    -15[16.7 µM]	5
- COc1ccc(S(=O)(=O)Nc2ccc3c(c2)C(=O)N([C@@H](C)CO)C[C@H](C)[C@@H](CN(C)S(=O)(=O)c2ccc(F)cc2)O3)cc1
    18[16.7 µM]	6
- CCCC#Cc1cnc2c(c1)C(=O)N([C@H](C)CO)C[C@H](C)[C@@H](CN(C)C(=O)C1CCC1)O2
    2[16.7 µM]	5
- C[C@@H]1CCCCO[C@H](CN(C)C(=O)Nc2ccc(C(F)(F)F)cc2)[C@@H](C)CN([C@@H](C)CO)C(=O)c2cc(NC(=O)c3ccccc3)ccc2O1
    4[16.7 µM]	-24
- CCCNC(=O)C[C@H]1CC[C@H]2[C@@H](COc3ccc(NC(=O)c4ccccc4)cc3C(=O)N2C)O1
    -1[16.7 µM]	2
- C[C@H]1CN([C@@H](C)CO)S(=O)(=O)c2ccc(C#CC3CC3)cc2O[C@H]1CN(C)Cc1ccccn1
    -6[16.7 µM]	-18
- CCCNC(=O)N1C[C@H](C)[C@@H](OC)CN(C)C(=O)c2ccc(NS(C)(=O)=O)cc2OC[C@H]1C
    3[16.7 µM]	0
- CC(C)C(=O)Nc1ccc2c(c1)C(=O)N(C)[C@@H]1CC[C@H](CC(=O)NCc3ccccc3)O[C@H]1CO2
    -18[16.7 µM]	16
- C[C@@H]1CN([C@@H](C)CO)C(=O)c2cc(NC(=O)Nc3ccccc3)ccc2O[C@@H](C)CCCCO[C@@H]1CN(C)S(=O)(=O)c1cn(C)cn1
    -2[16.7 µM]	1
- C[C@H](CO)N1C[C@H](C)[C@@H](CN(C)C(=O)c2ccccc2F)Oc2ncc(C#C[C@@H](C)O)cc2C1=O
    -7[16.7 µM]	2
- CCCc1cn(CC[C@H]2CC[C@H](NS(=O)(=O)c3ccccc3Cl)[C@H](CO)O2)nn1
    -2[16.7 µM]	-1
- C[C@@H]1CCCCO[C@H](CN(C)S(=O)(=O)c2ccccc2)[C@H](C)CN([C@H](C)CO)C(=O)c2cc(NS(=O)(=O)c3ccccc3)ccc2O1
    22[16.7 µM]	23
- COCC#Cc1cnc2c(c1)C(=O)N([C@@H](C)CO)C[C@H](C)[C@H](CN(C)C(=O)Cc1cccnc1)O2
    11[16.7 µM]	13
- Cc1noc(C)c1NC(=O)N(C)C[C@@H]1Oc2c(NC(=O)Nc3ccccc3)cccc2C(=O)N([C@@H](C)CO)C[C@H]1C
    2[16.7 µM]	0
- C[C@@H]1CN([C@@H](C)CO)S(=O)(=O)c2ccc(-c3ccc(F)cc3)cc2O[C@@H]1CN(C)C(=O)C1CCCCC1
    16[16.7 µM]	7

Source: PubChem (Broad Institute)
